Screening data as filed in PubChem.
HNF4A DNA FP: change in binding of human HNF4 alpha to DNA | P41235 | HNF4a-FITC DNA binding, fluorescence polarization, 1 h | activity change, % at 10 µM | actives 0.3% (n = 360,000); in the data active means activity change above about 30%, passing the limit was not always enough;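 further: controls were the assay level and a saturating level of protein; the project sought stronger binding though the title names inhibitors; some compounds called inactive have numbers as strong as hits; positive values seem to mean higher polarization but the record does not say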
UCH37 inh: blocks the human deubiquitinase UCH37; purified proteasome/UCH37, Ub-AMC cleavage fluorescence; Q9Y5K5; actives 0.33% (n = 330,000); AID 588478; inhibition, % (test concentration not listed);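 active means mean of two replicates above 20%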;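 further: 0% = compound-free wells with enzyme and 100% = wells lacking proteasome; stock transfer was 100 nL into about 20 µL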
Target sequence (Q9Y5K5 whole entry, looked up): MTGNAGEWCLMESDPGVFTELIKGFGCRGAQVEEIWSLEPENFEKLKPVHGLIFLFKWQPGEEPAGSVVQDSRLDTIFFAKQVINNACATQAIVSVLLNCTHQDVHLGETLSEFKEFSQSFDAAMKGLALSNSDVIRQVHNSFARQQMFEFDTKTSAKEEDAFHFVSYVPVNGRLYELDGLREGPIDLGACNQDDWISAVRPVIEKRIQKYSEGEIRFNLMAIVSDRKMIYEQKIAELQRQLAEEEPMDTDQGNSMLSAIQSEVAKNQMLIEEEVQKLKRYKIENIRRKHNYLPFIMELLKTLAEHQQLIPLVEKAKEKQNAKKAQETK
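Test system – human UCH37 enzyme supplied as purified proteasome complex · Incubation – 30 min preincubation with enzyme, 25 min cleavage at room temperature · Detection – AMC fluorescence from Ub-AMC cleavage, excitation 355 nm, emission 460 nm · Benchmarks – no-proteasome wells (full inhibition) and compound-free wells (no inhibition)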
E coli growth: blocks Escherichia coli growth; OD600, 23 h; active compounds read low; OD600 absorbance (concentration not given with the values); actives 0.21% (n = 330,000);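 active means OD600 absorbance below the run mean of sample wells minus 3.6 SD, in any replicate, cut at about 0.56 in these data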;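 further: stock transfer was 300 nL into about 60 µL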
Beta2AR agonist: human beta-2 adrenergic receptor agonism by FAP. P07550. Am2.2-beta2AR cells, FAP receptor internalization, flow cytometry; reference of the scale not given here. response, % (concentration not given with the values). actives 0.43% (n = 340,000);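 active means response above a set limit, near 3 SD of response in nonfluorescent compounds, cut at about 42% in these data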;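 further: stock transfer was 100 nL into about 11 µL; a reference agonist was the positive control; negative values mostly stem from fluorescent compounds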
Target sequence (P07550 whole entry, looked up): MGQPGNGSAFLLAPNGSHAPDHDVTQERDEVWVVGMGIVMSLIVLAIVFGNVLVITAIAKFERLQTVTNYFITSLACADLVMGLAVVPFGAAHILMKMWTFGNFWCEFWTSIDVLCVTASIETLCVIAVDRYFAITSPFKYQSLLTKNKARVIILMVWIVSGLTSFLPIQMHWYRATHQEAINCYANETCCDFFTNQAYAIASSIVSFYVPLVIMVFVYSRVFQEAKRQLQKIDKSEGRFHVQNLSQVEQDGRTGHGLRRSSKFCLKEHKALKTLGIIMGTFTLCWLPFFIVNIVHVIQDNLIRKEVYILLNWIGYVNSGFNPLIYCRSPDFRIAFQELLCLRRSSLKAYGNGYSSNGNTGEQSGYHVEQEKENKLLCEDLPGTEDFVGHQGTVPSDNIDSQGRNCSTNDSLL
LANA-H2A inh: blocks KSHV LANA binding to histone H2A/H2B; Q9QR71; cell-free LANA-H2A/H2B peptide, fluorescence polarization; inhibition, % (test concentration not listed); actives 0.6% (n = 320,000); in the data active means inhibition mostly above about 10%, no sharp cut-off; inactive means mostly below about 6.7%;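 further: stock transfer was 7.5 nL into about 10 µL; 0% = median of vehicle wells and 100% = median of positive control wells; one replicate is shown; the record names a cut of 25% in any replicate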
ALR inh: human ALR oxidase inhibition via reduced H2O2. inhibition, % (no concentration beside the values). purified ALR, DTT oxidation, H2O2 HRP-luminol luminescence. P55789. actives 3.8% (n = 290,000);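 active means mean and each replicate at 75% or more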;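 further: stock transfer was 7.5 nL into about 7.5 µL; 0% = neutral wells and 100% = wells with inactivated enzyme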
Target sequence (P55789 whole entry, looked up): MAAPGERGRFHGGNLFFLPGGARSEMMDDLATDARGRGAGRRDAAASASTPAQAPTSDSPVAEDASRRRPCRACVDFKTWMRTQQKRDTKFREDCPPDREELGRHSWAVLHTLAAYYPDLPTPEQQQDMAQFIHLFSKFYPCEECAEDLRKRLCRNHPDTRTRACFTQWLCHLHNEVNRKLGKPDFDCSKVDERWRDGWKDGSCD
FGF22 binding: shifts melting point of recombinant human FGF22; Q9HCT0; recombinant FGF22 thermal shift, SYPRO orange fluorescence; percent of sucrose octasulfate shift, DMSO zero; calls only at 9.99 µM; actives 1.5% (n = 340,000); AID 651658;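 active means melting point raised past a set limit in the mean and every replicate; three in four hits are not shown here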
* marks the source's active call; other numbers are inactive results; i = inactive; . = not tested or not shown; & = joins results of further samples. Some of the compounds tested (hit frequency here may not be typical).

| Beta2AR agonist | ALR inh | FGF22 binding | LANA-H2A inh | E coli growth | HNF4A DNA FP | UCH37 inh | mol |
| --- | --- | --- | --- | --- | --- | --- | --- |
| -2 | -2 | i | 1.6 | 0.65 | -3.4 | 1.8 | Cc1ccc(N2C(=O)CN(Cc3ccccc3)C2=S)cc1C |
| -5 | 11 | i | 3.1 | 0.69 | 0.6 | -0.3 | COc1ccc(C[C@](C)(N)C(=O)O)cc1OC |
| -9 | -6 | . | -0.9 | 0.72 | 2.5 | 1.5 | CSc1ccc(-c2nnn(Cc3ccc(Br)cc3)n2)cc1 |
| 5 | . | i | . | . | -3.6 | . | [O-][N+](=Cc1ccccc1)c1ccc(Cl)cc1 |
| -8 | 12 | . | -2.1 | 0.69 | -0.1 | 0.7 | N#CCSc1nnc(-c2ccccc2)c(-c2ccccc2)n1 |
| 2 | -15 | . | -5.0 | 0.73 | 8.2 | 0.1 | Cc1cc(C)cc(Nc2ncc3c(n2)CC(c2ccco2)CC3=O)c1 (stereo unspecified) |
| 7 | -5 | i | -0.9 | 0.7 | 1.5 | -1.1 | COc1ccc(CCN2CC(C(=O)NCCc3ccc(F)cc3)CCC2=O)cc1 (stereo unspecified) |
| 11 | -4 | . | 2.0 | 0.7 | -0.7 | 0.8 | CN=C(Nc1ccccc1OC)SC1CC(=O)N(c2ccc(C(=O)OC)cc2)C1=O (stereo unspecified) |
| -5 | -8 | i | -1.1 | 0.68 | -0.4 | 0.8 | CC(=O)c1ccc(S(=O)(=O)N2CCCc3ccccc32)cc1 |
| 4 | 7 | . | 6.9 | 0.72 | -2.6 | -9.7 | O=C(NCCO)c1ccccc1O |
| -1 | -4 | . | -12 | 0.7 | -3.6 | 1.1 | Cc1nn(-c2ccccc2)c(N)c1C(O)(CSc1nccn1C)C(F)(F)F (stereo unspecified) |
| -5 | 3 | . | 0.9 | . | -2.2 | . | O=C(CCC(=O)Nc1ccccc1)N/N=C/C=C/c1ccccc1 |
| -9 | -8 | i | 4.0 | 0.7 | 2.5 | -1.0 | Cc1ccc(CN2CCNC2=O)cc1 |
| -4 | 1 | i | 6.1 | 0.7 | -1.4 | -329 | CCCCn1c(=O)[nH]c(=O)c2c(C(=O)OCC)cc(-c3ccc(OC(F)F)cc3)nc21 |
| -2 | -15 | i | -6.7 | 0.61 | 3.4 | 0.3 | O=C(COc1ccc(Br)cc1)N(Cc1cccs1)C1CCS(=O)(=O)C1 (stereo unspecified) |
| 0 | -2 | . | 3.1 | 0.74 | 5.0 | 1.2 | CCCCNC(=O)COC(=O)c1cc(S(=O)(=O)N2CCCCCC2)ccc1OC |
| -2 | -18 | . | 2.9 | 0.71 | 0.0 | 2.3 | O=C(OCC(=O)N1CCOCC1)c1ccc[nH]c1=O |
| 13 | . | i | . | 0.74 | 1.4 | -22 | Cc1ccc(-c2nnc3ccc(SCC(=O)N4CCc5ccccc54)nn23)cc1 |
| 2 | -3 | . | 4.5 | 0.7 | -0.5 | 5.0 | O=C(COC(=O)c1cc([N+](=O)[O-])ccc1NCc1ccccc1)NC1CCCc2ccccc21 (stereo unspecified) |
| 4 | . | i | . | . | -2.5 | . | CN=c1scc(-c2ccc(F)cc2)n1/N=C/c1ccc(O)c(O)c1 |

The list goes on, overlapping the part above by 5 compounds.
| Beta2AR agonist | ALR inh | FGF22 binding | LANA-H2A inh | E coli growth | HNF4A DNA FP | UCH37 inh | mol |
| --- | --- | --- | --- | --- | --- | --- | --- |
| 0 | -2 | . | 3.1 | 0.74 | 5.0 | 1.2 | CCCCNC(=O)COC(=O)c1cc(S(=O)(=O)N2CCCCCC2)ccc1OC |
| -2 | -18 | . | 2.9 | 0.71 | 0.0 | 2.3 | O=C(OCC(=O)N1CCOCC1)c1ccc[nH]c1=O |
| 13 | . | i | . | 0.74 | 1.4 | -22 | Cc1ccc(-c2nnc3ccc(SCC(=O)N4CCc5ccccc54)nn23)cc1 |
| 2 | -3 | . | 4.5 | 0.7 | -0.5 | 5.0 | O=C(COC(=O)c1cc([N+](=O)[O-])ccc1NCc1ccccc1)NC1CCCc2ccccc21 (stereo unspecified) |
| 4 | . | i | . | . | -2.5 | . | CN=c1scc(-c2ccc(F)cc2)n1/N=C/c1ccc(O)c(O)c1 |
| 0 | -2 | i | -1.6 | 0.71 | -1.0 | 3.8 | COc1cc(OC)c(NC(=O)c2csc(C)c2)cc1Cl |
| -5 | -1 | i | 4.5 | 0.64 | 1.4 | 5.8 | O=c1[nH]c(CSc2ccccn2)nc2ccccc12 |
| -1 | -2 | . | -0.7 | 0.63 | -3.8 | -2.3 | CCOC(=O)C(C)n1cnc2c(nnn2Cc2ccc(Cl)cc2)c1=O (stereo unspecified) |
| 6 | -13 | i | -3.2 | 0.68 | 3.0 | 5.0 | O=[N+]([O-])c1ccc(-c2nc(C(Cl)Cl)c3ccccc3n2)cc1 |
| 10 | -4 | i | 3.4 | 0.67 | 0.2 | 7.0 | CCOC(=O)c1c(C)[nH]c(C(=O)CSc2nnnn2-c2ccc(C)cc2)c1C |
| 5 | -2 | i | -3.1 | 0.71 | -3.2 | 5.0 | Cc1cccc(NC(=S)NCCc2ccc3c(c2)OCCO3)c1C |
| 7 | . | . | -1.7 | 0.73 | -1.4 | 1.4 | CC12CN3CC(C)(CN(C1)C3c1c[nH]c3ccccc13)C2=O (stereo unspecified) |
| 1 | . | i | . | . | 3.1 | . | CC(CNC1CCCCC1)OC(=O)c1ccc([N+](=O)[O-])cc1 (stereo unspecified) |
| . | 1 | . | -1.5 | 0.71 | . | 4.1 | Cc1cccc2cc(CN(Cc3cccnc3)C(=O)c3cccs3)c3nnnn3c12 |
| -5 | 8 | . | -0.2 | 0.71 | -1.9 | 0.4 | CC(=O)c1sc(NC(=O)C(C)(C)C)nc1C |
| -8 | . | i | -2.3 | 0.69 | -1.3 | -3.0 | CNC(=O)COC(=O)c1ccccc1NC(=O)c1ccco1 |
| 5 | . | . | . | . | 3.1 | . | Cc1cc(N/N=C/c2ccncc2)nc2ccccc12 |
| 1 | -11 | . | 7.3 | 0.69 | -0.8 | 4.7 | O=C(CN1CC(=O)Oc2ccccc21)OCC(=O)c1ccc(Br)cc1 |
| -2 | -6 | i | 0.0 | 0.72 | 1.4 | 5.6 | CCCCNC(c1ccccc1)c1ccncc1 (stereo unspecified) |
| 1 | -3 | . | -4.4 | 0.79 | -3.1 | 5.3 | CCCCn1c(SCC2CCCO2)nc2cc(S(N)(=O)=O)ccc21 (stereo unspecified) |
| -9 | 1 | i | 1.8 | 0.7 | 1.8 | 6.0 | N#CC1(N2CCN(C(=O)c3ccccc3)CC2)CCCCC1 |
| 1 | -18 | . | -2.6 | 0.69 | -4.6 | 2.3 | Cc1cc(S(=O)(=O)NCC(c2ccccc2)c2ccccc2)ccc1-n1cnnn1 |
| 4 | 0 | i | 4.7 | . | 6.0 | . | COCCn1cnc2c(c1=O)c1nc3ccccc3nc1n2/N=C/c1ccc(OC)c(OC)c1 |
| -2 | -12 | . | -2.1 | 0.69 | 1.7 | 2.5 | Cc1cc(N2C(=O)CC(Cc3ccccc3)C2=O)no1 (stereo unspecified) |
| 2 | -4 | i | 1.0 | 0.66 | 1.4 | 3.4 | Cc1noc(C)c1C(=O)N(CC(=O)Nc1ccc(Cl)c(C(F)(F)F)c1)Cc1ccco1 |
| -6 | 5 | i | -0.6 | 0.71 | -3.0 | 1.1 | CN(C(=O)COC(=O)c1ccccc1SCC(=O)N1CCCC1)C1CCS(=O)(=O)C1 (stereo unspecified) |
| -3 | -3 | i | -2.2 | 0.66 | 0.9 | -132 | COc1cc2ccccc2cc1C(=O)OCC(=O)N(C)c1c(N)n(Cc2ccccc2)c(=O)[nH]c1=O |
| -5 | -4 | . | 2.3 | 0.64 | 0.3 | 1.4 | CCc1noc(C)c1C(=O)Nc1sc(C(=O)N(C)C)c(C)c1C(=O)OC |
| 6 | -4 | i | -0.2 | 0.67 | -1.2 | 0.7 | COCCOC(=O)c1c(C)oc2cc(Br)c(OCC(N)=O)cc12 |
| -3 | 98* | . | -0.4 | 0.71 | 0.3 | 1.4 | O=S(=O)(Nc1ccc(N2CCCCC2)cc1)c1cccc2cccnc12 |
| -4 | 1 | . | 0.1 | 0.63 | -6.2 | 0.3 | COc1ccc2c(c1)C(=O)c1ccccc1CO2 |
| -1 | -3 | i | -2.7 | 0.72 | 0.6 | 2.2 | COc1ccc(-c2[nH]ncc2CNCC(C)(C)N2CCOCC2)cc1F |
| -3 | -3 | i | -4.0 | 0.67 | -1.3 | -0.8 | CCOC(=O)C1(CCCc2ccccc2)CCN(CC(O)CO)CC1 (stereo unspecified) |
| 5 | 3 | . | 1.7 | 0.61 | -1.2 | -0.6 | CCN(CC)CCNCc1ccc(-c2ccc(Cl)cc2)o1 |
| 3 | -10 | i | -2.9 | 0.62 | -0.7 | 4.9 | Cn1cnc([N+](=O)[O-])c1SCCO |
| 2 | . | . | 3.4 | 0.7 | 0.1 | 21* | Cc1ccc(NC(=S)C2=C(O)c3ccccc3N(C)S2(=O)=O)cc1 |
| -4 | . | i | -0.4 | 0.71 | 1.3 | -0.2 | CCOC(=O)c1c(S(=O)(=O)NCC(=O)Nc2ccccc2OC)c(C)n(C)c1C |
| 2 | -3 | i | 3.8 | 0.68 | -2.9 | 2.6 | COc1ccc(C(=O)OCC(=O)NCC2CCCO2)cc1S(=O)(=O)N1CCCc2ccccc21 (stereo unspecified) |
| -6 | 2 | . | 1.1 | 0.67 | 1.4 | 2.3 | CC1(C)CC(=O)C2=C(C1)OC(N)=C(C#N)C21C(=O)N(CN2CCOCC2)c2ccccc21 (stereo unspecified) |
| -3 | 11 | i | -4.7 | 0.68 | -4.0 | 3.0 | O=C(NNC(=O)c1ccc(Oc2ccc(C3SCCS3)cc2)o1)c1ccc(Cl)cc1 |
| 6 | 59 | i | -3.5 | 0.67 | 1.5 | 3.7 | O=C(Nc1nnc(-c2ccc(Cl)cc2)o1)c1ccccc1Br |
| -1 | 99* | i | 0.2&4.3 | 0.7 | -1.6 | 5.7 | O=Cc1ccc(O)c(O)c1 |
| -3 | 44 | i | 4.2 | 0.67 | -0.3 | 3.2 | CCn1c(CNC(=O)c2ccccc2OC)nnc1SCC(=O)c1ccc(F)cc1 |
| -1 | -9 | i | -1.6 | 0.69 | -0.9 | 0.3 | CCOc1ccc(N(CC(=O)Nc2ccc(OC)cc2)S(=O)(=O)c2c(C)[nH]c(=O)[nH]c2=O)cc1 |
| -3 | 2 | i | -3.9 | 0.7 | 1.2 | 12 | CCc1nc(NC(=O)c2sc(C)nc2C)sc1C(=O)OC |
| -13 | . | i | 7.3 | 0.68 | -2.0 | 1.9 | COc1ccccc1-c1nnc(SCC(=O)NNC(=O)c2ccccc2F)n1C |
| 23 | -37 | . | -1.0 | 0.69 | -0.4 | 1.1 | COc1ccc(NC(=O)CSc2nncs2)cc1OC |
| 14 | 99* | i | 0.0 | 0.67 | -1.7 | 0.4 | CCOC(=O)c1c(C)[nH]c(C(=O)C(C)OC(=O)c2ccc(NC(=O)CC#N)cc2)c1C (stereo unspecified) |
| 7 | -6 | i | 6.2 | 0.67 | -8.3 | 3.7 | CCc1nn(CCCC(=O)NCc2cc(Br)ccc2OC)c(=O)c2cc3occc3n12 |
| 2 | 9 | i | -4.4 | 0.65 | -0.7 | 2.8 | O=C(NC(Cc1ccccc1)C(=O)O)/C(=C\c1ccc(F)cc1)NC(=O)c1ccco1 (stereo unspecified) |
| -2 | . | i | . | 0.71 | 4.3 | 1.0 | O=C(Cc1ccccc1)N[C@@H]1c2ccccc2CC[C@@H]1OCc1ccccc1 |
| -1 | -2 | i | -2.3 | 0.69 | -1.5 | 3.6 | COCC1CCCCN1Cc1cn[nH]c1-c1ccc2cc(OC)ccc2c1 (stereo unspecified) |
| -14 | . | . | -1.5 | 0.67 | 1.0 | 3.3 | CCCOc1ccc(CNC(=S)NCc2ccc(OC(C)C)cc2)cc1 |
| -9 | . | . | 3.5 | 0.68 | -0.9 | 1.5 | O=C(NCCOc1ccc(Cl)cc1)c1ccc2c(c1)OCCO2 |
| 5 | 5 | i | -1.2 | 0.66 | 7.6 | -3.0 | COc1cc2c(cc1OC)CN(S(=O)(=O)c1ccccc1F)CC2 |
| 2 | 40 | . | 1.3 | 0.68 | 5.5 | i | COC(=O)Cc1cc(=O)oc2c(C)c(O)ccc12 |
